Screens as filed in PubChem BioAssay.
Calb FLC = affects C. albicans growth with fluconazole; C. albicans CaCi-2 (fluconazole-resistant clinical isolate) + fluconazole, Alamar Blue growth, 48 h; growth inhibition, % (no concentration beside the values); hit rate 0.57% among 300,000;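 active means most replicates above 75%; inconclusive means exactly half above 75%; inactive means most below 75%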;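 further: all wells also contain fluconazole at 8 µg/ml as a sub-toxic cotreatment; 0% = median of DMSO wells and 100% = median of geldanamycin control wells; wells of about 8 µL received 7.5 nL stock; the first replicate is given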
RanGTP-Impb inh = disruptors of Ran-importin-beta complex formation – biochemical, FRET, CFP-Ran, YFP-importin-beta, homogeneous, primary screen | cell-free CFP-Ran/YFP-importin-beta FRET ratio | inhibition, % (concentration not given with the values) | hit rate 1.1% among 300,000 | AID 2216;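 active means most replicates above 15%; inconclusive means exactly half above 15%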;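 further: 0% = DMSO wells and 100% = Ran loaded with GDP instead of GTP; wells of about 40 µL received 100 nL stock; the first replicate is given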
Beta cell apopt = blocks beta cell apoptosis; AID 435005; hit rate 0.8% among 300,000; protection from apoptosis, % (no concentration beside the values); INS-1E cytokine-induced death, ATP luminescence, 48 h; percent of positive-control rescue, neutral wells zero;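 active means all replicates at 75% or more, or half of them and the mean; inconclusive means half reach 75% but not the mean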;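 further: 0% = cytokine-treated negative control wells and 100% = positive control rescue; higher means more ATP so stronger rescue from cytokine killing; wells of about 40 µL received 100 nL stock; the first replicate is given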
Vif A3G = HIV-1 Vif–A3G interaction blockers – biochemical, TR-FRET, GST-Vif 1-94, biotin-A3G peptide, dose response retest, primary screen (AID 1117319) | TR-FRET GST-Vif / biotin-A3G peptide binding; higher % means a stronger effect; test concentration not given here; strong numbers were not always called active | inhibition, %, or IC50 in µM where a hit was titrated | hit rate 0.57% among 260,000;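 active means above the screen mean plus three standard deviations and confirmed in dose response; inconclusive means results disagree or hit not tested in dose response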;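 further: Vif residues 1-94 fused to GST binding biotinylated APOBEC3G peptide 110-148; 0% = full assay without inhibitor and 100% = GST in place of GST-Vif; retest series ran down from 100 µM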
T cruzi inh = T. cruzi replication inhibition; T. cruzi beta-gal in NIH3T3, luminescence, 90 h; inhibition, % (no concentration beside the values); hit rate 1.4% among 300,000; AID 1885;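 active means mean inhibition across valid replicates above about 55%, limit read from the data; inconclusive means mean below that limit but half or more replicates reach it; inactive means mean below it, under half of replicates reach it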;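 further: signal also drops with host cell toxicity which is not excluded here; 0% = plate median of DMSO wells and 100% = zero luminescence signal; higher percent means less beta-gal luminescence so fewer parasites; stock transfer was 50 nL into about 50 µL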
A1 inh = inhibitors of the anti-apoptotic protein A1, read as caspase activation; AID 2462; hit rate 0.066% among 330,000; MEF A1-2A-BIM cells, Caspase-Glo 3/7 luminescence, 3 h; percent of clofoctol response, vehicle zero; caspase activation, % (test concentration not listed);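 active means over half of replicate activation scores above 10%, or exactly half above 10 with the replicate mean above 10; inconclusive means replicate mean below 10 yet half the replicates above 10; inactive means over half of replicates below 10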;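 further: wells of about 30 µL received 50 nL stock; many hits fall short of the cut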
LANA-H2A inh = blocks KSHV LANA binding to histone H2A/H2B; hit rate 0.6% among 320,000; inhibition, % (test concentration not listed); cell-free LANA-H2A/H2B peptide, fluorescence polarization; Q9QR71; AID 2629; in the data active means inhibition mostly above about 10%, no sharp cut-off; inactive means mostly below about 6.7%;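 further: stock transfer was 7.5 nL into about 10 µL; 0% = median of vehicle wells and 100% = median of positive control wells; one replicate is shown; the record names a cut of 25% in any replicate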
AF4-AF9 inh = blocks AF4 peptide binding to human AF9 | hit rate 0.47% among 350,000 | inhibition, % at 10 µM | AlphaScreen, biotin-AF4 peptide binding to FLAG-AF9 | P42568 | AID 651704;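 active means every replicate reaching a set inhibition limit, whatever the replicate mean, cut at about 25% in these data; inconclusive means mean inhibition reaches that limit but some replicates miss it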;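 further: 0% = plate neutral control median and 100% = total signal loss; the record names both 10 and 1 µM as test concentration; the first replicate is given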
Target sequence (P42568 whole entry, looked up): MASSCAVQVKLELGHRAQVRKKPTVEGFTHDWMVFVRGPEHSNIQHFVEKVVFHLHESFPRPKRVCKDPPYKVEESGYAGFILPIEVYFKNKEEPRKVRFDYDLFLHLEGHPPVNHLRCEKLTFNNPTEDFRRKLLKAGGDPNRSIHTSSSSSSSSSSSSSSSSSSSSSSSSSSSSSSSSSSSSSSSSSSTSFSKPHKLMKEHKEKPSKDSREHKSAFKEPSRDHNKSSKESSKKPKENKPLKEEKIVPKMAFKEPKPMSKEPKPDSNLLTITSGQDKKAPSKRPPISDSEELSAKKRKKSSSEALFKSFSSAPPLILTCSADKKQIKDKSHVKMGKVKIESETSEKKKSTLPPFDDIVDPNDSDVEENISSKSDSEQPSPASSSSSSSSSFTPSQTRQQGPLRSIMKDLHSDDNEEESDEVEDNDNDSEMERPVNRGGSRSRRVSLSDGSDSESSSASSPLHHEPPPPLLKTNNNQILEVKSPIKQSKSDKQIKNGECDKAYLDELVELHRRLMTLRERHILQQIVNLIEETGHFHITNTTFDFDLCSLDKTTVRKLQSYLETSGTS
* hit, by the source's call; ? = inconclusive; . = no result given; & = joins results of further samples. The order is random; about 4.3% have a hit in one of these screens.

SMILES	Calb FLC	RanGTP-Impb inh	Beta cell apopt	Vif A3G	T cruzi inh	A1 inh	LANA-H2A inh	AF4-AF9 inh
Cc1cc(Br)cc2c(C(=O)NCC3CCCO3)cc(-c3cccs3)nc12 (stereo not given)	-5	6.7	13	.	26	0.1	-1.6	-2.3
COc1ccc(C(=O)NNC(=O)CSc2ccccc2)cc1	2	-0.1	-2	-5%	-7	1.0	-6.1	-0.9
COc1ccc(OCC(=O)Nc2nnc(-c3ccco3)s2)cc1	0	-2.3	-8	.	-6	-0.8	-0.8	.
Cc1ccc(NC(=S)NC(=O)c2ccccc2)cc1NC(=S)NC(=O)c1ccccc1	-5	-0.9	25	-11%	22	0.3	2.1	-2.2
Cc1ccc(CSc2nc3ncccc3[nH]2)cc1	-12	5.1	-5	?	-6	0.4	1.6	.
Cc1ccc(NC(=O)CSc2nc(CSc3ccc(C)cc3)cc(=O)[nH]2)cc1	25	-1.9	-3	87%	-2	-1.5	-5.1	-0.1
NC(=O)NC(CC(=O)NCc1ccc2c(c1)OCO2)c1ccccc1Cl (stereo not given)	0	0.6	-2	.	-1	2.6	3.7	0.1
O=C(N/N=C/c1cccnc1)C12CC3CC(CC(C3)C1)C2	-20	-1.6	-4	.	7	1.3	3.4	-2.0
O=C(NC(CO)(CO)CO)c1coc(=O)c(Br)c1	-11	6.5	-2	?	1	0.2	0.4	.
O=C(Nc1ccccc1)NC1CC2CCC(C1)N2Cc1nnnn1Cc1ccc2c(c1)OCO2 (stereo not given)	12	-1.5	-2	28%	1	-0.1	-0.7	.
O=C(C1=C(O)C(=O)N(CC2CCCO2)C1c1ccc(Cl)cc1)c1ccco1 (stereo not given)	0	-4.6	-4	.	-6	-0.5	6.7	2.7
N/C(=N\OC(=O)c1ccco1)c1ccc(Br)cc1	4	-1.4	-4	-3%	6	0.5	-0.7	.
O=C(NC(=S)Nc1cccc(Cl)c1N1CCCCC1)c1ccco1	-4	-4.5	8	1%	28	0.3	-6.9	12
CCc1nc2ccc(C(=O)N(CC)CC(=O)Nc3c(F)cccc3F)cc2nc1CC	.	.	1	14%	.	1.2	3.9	0.2
CCOC(=O)C1CCN(S(=O)(=O)c2ccc(CNC(=O)c3ccccc3)s2)CC1	6	8.4	1	-2%	3	0.2	-1.1	-1.5
Cc1cc(C)cc(-n2nnc(C(=O)NCc3ccc4c(c3)OCO4)c2N)c1	-29	0.5	-3	19%	-2	-0.5	-2.6	.
COc1cc(CNn2c(C)n[nH]c2=S)cc(Cl)c1OCc1ccccc1	7	0.4	-1	26%	7	0.1	-0.6	-5.4
C=CCN(C(=O)c1ccc2c(c1)nnn2C)c1ccccc1	-1	3.3	-5	6%	6	1.1	-12	4.3
O=C(CC(=O)NCc1ccccc1)NCc1ccccc1	-3	-3.8	.	.	-13	?	-3.7	-4.3
C#CCn1c(=NC(=O)CN2C(=O)CCC2=O)sc2cccc(C)c21	9	4.1	1	1%	9	0.0	7.8	-2.2
CNC(=S)N1CCC(NC(=O)C(Cc2ccccc2)NC(C)=O)CC1 (stereo not given)	5	3.9	-8	7%	-3	0.8	-1.1	-0.4
O=C(COC(=O)C1CC(=O)N(Cc2ccco2)C1)Nc1nc(-c2ccc(F)cc2)cs1 (stereo not given)	.	.	5	.	.	-10	-0.8	-8.6
CCOc1ccccc1OCC(=O)Nc1ccc(S(=O)(=O)Nc2ncccn2)cc1	13	4.6	.	17%&6%	-16	1.4	-0.8	.
O=C(c1ccccn1)N(Cc1ccco1)C1(C(=O)NC2CCCCC2)CCCCC1	?	?	-3	-2%	2	0.1	-0.6	.
Cc1cccc(-c2cc(C(=O)Nc3ccncc3)c3ccccc3n2)c1	-31	-0.8	.	.	39	.	.	-3.2
Cc1ccc2[nH]c3nc(SCC#N)nnc3c2c1	.	-1.0	1	6%	-9	-0.8	1.0	-1.3
CC(=O)c1ccc2noc(-c3cccc(C)c3)c2c1	6	1.3	-4	13%	3	-1.0	-2.5	?
O=C(O)C1CCC(=O)N(C2CC2)C1c1ccccc1 (stereo not given)	0	0.7	-1	-1%	-7	0.5	3.5	.
CCOc1cc(/C=N/O)cc(Br)c1OCC	-5	4.2	-8	.	3	0.6	4.5	.
COc1ccc(-n2c(COc3cccc4cccnc34)nnc2SCC(=O)O)cc1	-3	-3.8	-1	2%	-10	0.9	-3.8	-3.0
COC(=O)c1ccccc1NC(=O)CSc1nc(N)cc(N)n1	-4	-0.3	-3	-3%	0	1.3	1.2	-9.1
O=C(Oc1cccc(C(=S)N2CCOCC2)c1)c1cccc([N+](=O)[O-])c1	-4	3.2	-3	.	-9	0.6	3.6	5.6
CN(C)S(=O)(=O)c1cccc(C(=O)NCCCn2ccnc2)c1	7	-0.6	0	-2%	-15	0.2	1.3	-0.5
CCc1ccc(NS(=O)(=O)c2cc3[nH]c(=O)c(=O)[nH]c3cc2C)cc1	5	2.9	-4	.	15	-1.3	0.6	3.1
CC(C)n1c(=O)[nH][nH]c1=S	11	-4.3	-4	-5%	-4	0.2	3.0	3.6
COc1cccc(NC(=O)CN(C)CC(=O)NC(C)c2ccccc2)c1 (stereo not given)	-5	4.7	0	2%	-21	0.4	-1.0	-0.2
COCCn1c(SCC(=O)NC2CCCCC2)nnc1-c1ccco1	-6	0.2	-1	.	-2	0.5	-0.1	1.3
Cn1nc(C(=O)Nc2ccc(S(=O)(=O)N3CCCCC3)cc2)ccc1=O	7	0.3	3	6%	-21	-1.5	5.2	.
CC(C)C(c1nnnn1Cc1cccs1)N1CCN(c2ccccc2)CC1 (stereo not given)	-9	-0.4	.	4%	9	-0.5	0.6	.
COc1cc(NC(=O)c2cc3ccccc3o2)c(OC)cc1Br	7	0.5	-11	4%	5	0.5	-8.0	.
Cn1c(=O)c2ncn(CC(=O)N=Nc3c(O)[nH]c4ccccc34)c2n(C)c1=O	5	0.8	-6	8%	-12	0.0	0.1	.
N=c1n(Cc2ccccc2)c2ccccc2n1CC(O)COc1ccccc1 (stereo not given)	13	3.3	18	?	8	0.7	-3.6	.
Cc1ccc(S(=O)(=O)N2CCCc3ccccc32)cc1C	28	?	1	-6%	28	-0.5	2.2	-3.2
O=C(NCc1cccnc1)c1cc(S(=O)(=O)N2CCOCC2)c(Cl)cc1Cl	8	-0.7	0	-2%	4	0.0	-4.3	1.5
Cc1cccc(NC(=O)CN2C(=O)/C(=C3\SC(=S)N(CC4CCCO4)C3=O)c3ccccc32)c1 (stereo not given)	.	1.8	-5	.	-1	-1.0	2.2	.
Cc1nc(CN2CCC(c3ccccc3)CC2)cc(=O)[nH]1	3	-1.1	-1	20%	-3	-0.4	0.4	-1.3
CSc1nccc(Oc2cncc(Cl)c2)n1	6	2.1	-3	.	-2	0.5	11*	-1.5
CCN(CC(=O)NCc1ccc(F)cc1)CC(O)COCc1cccc(OC)c1 (stereo not given)	-95	-1.4	-12	2%	4	1.0	-5.7	.
Cc1ccc(/C(O)=C/C(=O)C(=O)NNC(=O)C(O)(c2ccccc2)c2ccccc2)cc1	-10	3.0	4	5%	-6	1.5	0.3	.
c1ccc(-c2nn[nH]n2)nc1	3	-0.3	-7	-2%	-9	0.8	0.1	.
CCc1ccc(S(=O)(=O)Nc2c(C)nn(C)c2C)cc1	23	-2.0	3	1%	-29	1.2	-4.7	.
O=C(O)/C=C\C(=O)Nc1ccc(OCc2ccccc2)cc1	-2	-9.9	0	6%	-15	-0.5	3.0	3.4
COc1ccccc1NC(=O)c1c([N+](=O)[O-])cnn1C	-5	-2.9	0	.	-1	1.2	15*	0.6
O=C(CNC(=O)c1ccc(Br)cc1)NC1=NCCS1	2	4.5	-9	.	-11	0.1	-6.6	-0.1
COc1cc(/C=C/C(=O)NC2CCCCC2)cc(OC)c1OC	16	3.7	-3	-3%	0	0.5	-0.3	-2.4
CC(Oc1cccc(Cl)c1)C(=O)Nc1ccc(N2CCOCC2)cc1N1CCOCC1 (stereo not given)	17	0.4	3	1%	7	0.7	2.2	16
COc1cc(/C=c2/sc3nc(-c4ccccc4)c(-c4ccccc4)n3c2=O)cc(OC)c1OC	8	-4.3	-5	.	14	-0.2	-4.1	.
CSc1ccccc1NC(=O)CN1CCCCC1	-5	4.8	7	-2%	-7	2.2	1.7	-0.3
COc1ccccc1NC(CC(=O)c1ccccc1)C(=O)OCC(=O)c1ccc(Br)cc1 (stereo not given)	5	-4.1	3	.	-11	-0.4	2.5	.
O=C(O)c1c(NC(=O)c2cccc3ccccc23)sc2c1CCC2	8	-1.3	5	8%	-19	-1.4	1.7	.

The list goes on:
SMILES	Calb FLC	RanGTP-Impb inh	Beta cell apopt	Vif A3G	T cruzi inh	A1 inh	LANA-H2A inh	AF4-AF9 inh
COc1ccc(CN(CCC(c2ccccc2)c2ccc(OC(C)C)cc2)C(=O)CCl)cc1OC (stereo not given)	4	-1.9	9	?	25	2.6	-7.3	4.7
COc1cccc(CNC(=O)CN(c2ccc(C(C)C)cc2)S(=O)(=O)c2c(C)noc2C)c1	1	2.4	0	.	25	-0.3	-1.6	-2.7
C[C@H](NC(N)=O)C(=O)OCC(=O)Nc1ccc(OC(F)F)cc1	-18	1.9	4	-3%	-6	-0.1	0.1	-0.6
Cc1cccc(NS(=O)(=O)c2cc(C(=O)N3CCCCCC3)ccc2C)c1	-3	-0.1	.	8%	16	-0.4	1.3	-2.4
O=C(O)COCC(=O)N1CCc2c([nH]c3ccccc23)C1C(F)(F)F (stereo not given)	-4	3.0	-7	-4%	-7	-2.5	-1.0	1.2
COc1ccc(N2CCN(Cc3nc4c(c(=O)[nH]c(=O)n4C)n3CC(C)=O)CC2)cc1	-1	0.9	3	9%	-9	-0.7	-0.6	1.8
O=C(NCC(=O)N(c1ccc(F)cc1)C(C(=O)NCC1CCCO1)c1ccccc1)c1ccco1 (stereo not given)	26	-3.0	-4	-2%	-15	0.7	-3.4	.
COc1ccc(-c2c(-c3ccc(S(C)(=O)=O)cc3)sc3ccc(OC)cc23)cc1	.	.	9	.	.	0.1	1.0	9.1
COc1ccc(OCC(=O)N/N=C/c2ccc(N(C)C)cc2)cc1	-11	0.8	-1	1%	-6	0.5	0.6	5.5
CNc1c(NS(=O)(=O)c2ccc(Cl)s2)c(=O)oc2ccccc12	-11	?	-4	.	-19	-0.3	-2.9	2.2
Cn1c(=O)n(/N=C/c2ccccc2)c2ccccc21	1	2.8	-5	5%	-10	-0.2	-0.4	.
CCOc1ccc(N(CC(=O)NCc2cccs2)S(=O)(=O)c2c(C)noc2C)cc1	5	-1.0	6	-1%	-9	0.7	-0.1	-0.6
O=C(CN1CCN(Cc2ccccc2Cl)C1=O)NC1CCCCCCC1	1	5.4	-2	5%	8	-1.6	-4.4	.
CN1CCN(C(=O)CCc2nc(-c3ccc(Cl)cc3)no2)CC1	-28	6.3	0	22%	-7	0.2	2.9	-5.3
O=C(/C=C/c1ccccc1)NCc1ccc2c(c1)OCO2	-28	-4.6	2	-10%	-1	0.1	-0.6	-11
